Lassa entry inh = inhibitors of Lassa virus binding or cell entry; 300,000 compounds, 1.2% hits; Potency, µM (titrated, usually from 37.9 µM), without a hit: at the highest dose activity change, negative = inhibition, usual class: inhibitors; Lassa virus pseudotype entry inhibition, cell reporter; control for the full effect not named in the record; active means well fitted inhibition curve with a large enough effect; inconclusive means small, poorly fitted or top-dose-only effect, or effect the other way; inactive means flat fitted curve, though single readings scatter; tested in HEK293 cells; further: on the % scale 0 is the no-effect control and ±100 the full control effect; nearly all actives have a fitted effect of over 50% in size; luciferase read-out
SARS PLP yeast = SARS-CoV PLP inhibition in yeast; Potency, µM (highest dose often 32.9 µM), inactives show at the highest dose activity, positive = growth rescue; S. cerevisiae expressing SARS-CoV PLpro, growth rescue; control for the full effect not named in the record; 330,000 compounds, 0.19% hits; further: 0% is about no effect; nearly all actives have a fitted effect of over 55% in size; growth read by luminescence after 48 h
NS1 function inh = influenza NS1 inhibition. S. cerevisiae slowed by influenza A NS1, growth recovery by OD600. 270,000 compounds, 0.4% hits. Potency, µM (top dose mostly 46.1 µM), inactives show at the top dose activity, positive = more growth; further: actives are rising curves; nearly all actives have a fitted effect of over 50% in size
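Recovery from NS1-induced slow growth read by OD600 in budding yeast switched to galactose assay medium (pH 6.0, -URA) at 1:100 dilution. Compound 23 nl per well; the matching strain lacking NS1 serves as control.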
MARV entry inh = blocks Marburg virus binding to or entry into cells. Marburg virus pseudotyped entry inhibition, cell reporter; control for the full effect not named in the record; about a third of the inactives were read at about 46 µM. Potency, µM (doses to about 37.8 µM), for inactives: at the top dose activity change, negative = inhibition, actives largely listed as inhibitors. 300,000 compounds, 1.8% hits; active = well fitted inhibition curve with a large enough effect; inconclusive = small, poorly fitted or top-dose-only effect, or effect the other way; inactive = flat fitted curve, though single readings scatter; tested in HEK293 cells; about a fifth of its hits are not listed in these tables; further: on the % scale 0 is the no-effect control and ±100 the full control effect; luciferase read-out
Cruzain Triton = blocks cruzain activity in presence of Triton detergent | P25779 | purified cruzain, Z-FR-AMC fluorescence, 0.01% Triton | Potency, µM, for inactives: max response, negative = inhibition, actives largely listed as inhibitors | 200,000 compounds, 0.43% hits | AID 1478; active means well fitted curve in the direction sought with a large enough effect; inconclusive means small, poorly fitted or top-dose-only effect, or another doubt; inactive means no such curve, though single readings can be large; an effect the other way counts as inactive or inconclusive;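 further: plate controls were neutral wells for no effect and buffer without enzyme for full effect; nearly all actives have a fitted effect of over 40% in size; top concentration of the series not given in the record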
Target sequence (P25779 123-467 limits assumed): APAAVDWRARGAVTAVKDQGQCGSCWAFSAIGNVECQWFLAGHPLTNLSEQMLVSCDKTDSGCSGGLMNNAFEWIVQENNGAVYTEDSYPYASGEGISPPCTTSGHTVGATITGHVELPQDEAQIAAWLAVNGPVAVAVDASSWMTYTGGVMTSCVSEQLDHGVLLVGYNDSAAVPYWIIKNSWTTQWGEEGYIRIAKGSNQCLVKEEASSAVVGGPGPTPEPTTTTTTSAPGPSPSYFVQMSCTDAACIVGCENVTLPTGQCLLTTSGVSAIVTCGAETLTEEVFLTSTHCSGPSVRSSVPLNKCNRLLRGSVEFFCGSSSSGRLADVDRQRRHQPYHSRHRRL
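Cysteine protease activity tested under reducing, mildly acidic conditions (100 mM sodium acetate pH 5.5, 5 mM DTT) plus 0.01% Triton X-100. Cruzain 1.5 nM; substrate Z-FR-AMC 2 uM; 15 min compound preincubation at room temperature.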
2A StopGo = lowers the luciferase signal of an FMDV 2A StopGo reporter; human cells with a luciferase reporter of 2A StopGo recoding; control for the full effect not named in the record; Potency, µM (top dose mostly 57.9 µM), for inactives: at the top dose signal change, negative = less light; 410,000 compounds, 1.2% hits; AID 1159524; active = well fitted falling curve with a large enough effect; inconclusive = small, poorly fitted or top-dose-only effect; inactive = no such curve, though single readings can be large or run the other way; tested in HEK293T cells; further: on the % scale 0 is the no-effect control and ±100 the full control effect; nearly all actives have a fitted effect of over 45% in size; luciferase light after 4 h
Cruzain inh noDet = blocks cruzain activity in detergent-free assay; P25779; purified cruzain, Z-FR-AMC fluorescence, no detergent; AID 1476; 200,000 compounds, 2.3% hits; Potency, µM, for inactives: max response, negative = inhibition, hits mostly inhibitors; active means well fitted curve in the direction sought with a large enough effect; inconclusive means small, poorly fitted or top-dose-only effect, or another doubt; inactive means no such curve, though single readings can be large; an effect the other way counts as inactive or inconclusive;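 further: plate controls were enzyme without inhibitor for no effect and buffer without enzyme for full effect; nearly all actives have a fitted effect of over 40% in size; top concentration of the series not given in the record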
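Detergent-free condition (0.00005% Triton X-100) in acetate buffer pH 5.5 with DTT. 1.5 nM enzyme and compound were pre-mixed 15 min, then 2 uM Z-FR-AMC substrate added; reaction progress from fluorescence change between first and third reads (60 s).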
RE007 growth inh = less growth of the S. pombe RE007 Vpr strain; Potency, µM (top dose mostly 92.2 µM), for the others: at the highest dose activity change, negative = less growth; S. pombe RE007 Vpr strain, BacTiter-Glo ATP luminescence, 24 h; control for the full effect not named in the record; AID 651644; 360,000 compounds, 0.21% hits; active = well fitted falling curve with a large enough effect; inconclusive = small, poorly fitted or top-dose-only effect; inactive = no such curve, though single readings can be large or run the other way;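 further: on the % scale 0 is the no-effect control and ±100 the full control effect; nearly all actives have a fitted effect of over 50% in size; the assay follows cell death caused by Vpr and the record does not say whether a fall means rescue or toxicity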
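Fission yeast strain RE007, carrying one chromosomally integrated HIV-1 vpr copy, was seeded at OD 0.01 in PMG+AL medium with 23 nL pinned compound. After 24 h at 30 °C and 99% humidity, viability was read by BacTiter-Glo luminescence.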
* = called active by the depositor; ? = inconclusive; · = no result given; [ ] = remark or other dose. Unless noted, the call rests on the fitted dose curve; in most records, active means well fitted rising curve with a large enough effect; inconclusive means small, poorly fitted or top-dose-only effect; inactive means no such curve, though single readings can be large or run the other way. Potency means the concentration at half of the fitted maximal effect. Compounds were not picked by outcome; overall some 4.7% were active at least once.

SMILES	Lassa entry inh	SARS PLP yeast	NS1 function inh	MARV entry inh	Cruzain Triton	2A StopGo	Cruzain inh noDet	RE007 growth inh
CC(=O)NCCNc1ccc([N+](=O)[O-])cc1C#N	-11%[46.1 µM]	-5%	·	-7%[46.1 µM]	·	-3%	·	1%
CCCCC(=O)N/N=C/c1ccc(N2CCOCC2)c([N+](=O)[O-])c1	-10%	20%	7%	?	-7.4%	-23%	-13%	6%
COCCNc1nnc(SCC(=O)Nc2cc(-c3ccccc3)nn2-c2ccccc2)s1	4%	-9%	13%	-13%	1.9%	-9%	18%	-1%
Cc1nnc2ccc(-c3ccc(NS(=O)(=O)c4ccccc4)cc3)nn12	-9%	-1%	·	-3%	·	0%	·	5%
CCOC(=O)C1C(=O)C(=O)N(Cc2ccccc2)C1C(=O)OCC (stereo unspecified)	16%[46.1 µM]	·	·	-12%[46.1 µM]	·	0%	·	-22%
Cc1ccc(-n2ncc3ccccc3c2=O)cc1Cl	·	1%	9%	·	·	49%[activator]	·	-17%
CCN1c2nc3c(C)cccn3c(=O)c2CC2(C(=O)N(C)C(=O)N(C)C2=O)C1C (stereo unspecified)	12%	4%	-3%	-14%	1.2%	-9%	6%	-16%
CSc1nc(O)c(C(c2ccccc2Cl)c2c(O)nc(SC)[nH]c2=O)c(=O)[nH]1	-3%[46.1 µM]	·	·	?	·	22%	·	7%
CC1CCCCN1S(=O)(=O)c1ccc(C(=O)Nc2ccccc2-c2nc3ccccc3[nH]2)cc1 (stereo unspecified)	-25%	-15%	-5%	?	-4.9%	?	?	13%
O=C(NCCS(=O)(=O)N1CCN(c2ccc(F)cc2)CC1)c1ccc(Br)o1	·	-2%	-4%	·	·	-21%	·	-10%
O=C1OCCN/C1=C\C(=O)c1ccccc1	12%	1%	3%	5%[14.2 µM]	·	-7%	·	11%
CCOc1ccc(-n2c(SCC(=O)Nc3cc(C)ccc3C)nc3c([nH]c4ccccc43)c2=O)cc1	26%[46.1 µM]	·	·	·	0.0%	0%	-2%	·
CN(C)N=Nc1nc2c([nH]1)c(=O)n(C)c(=O)n2C	2%	0%	2%	12%[46.1 µM]	·	1%	·	4%
COc1ccc(N2CCN(S(=O)(=O)c3cn(C)c(=O)n(C)c3=O)CC2)cc1	·	-4%	2%	·	·	-24%	·	-4%
COc1ccc(-c2nnc(SCC(=O)Nc3ccccc3C)o2)cc1OC	-4%[46.1 µM]	·	·	-19%[46.1 µM]	-4.7%	-15%	15%	·

2 entries from above in another layout.
compound | Lassa entry inh | SARS PLP yeast | NS1 function inh | MARV entry inh | Cruzain Triton | 2A StopGo | Cruzain inh noDet | RE007 growth inh
O=C1OCCN/C1=C\C(=O)c1ccccc1 | 12% | 1% | 3% | 5%[14.2 µM] | · | -7% | · | 11%
CCOc1ccc(-n2c(SCC(=O)Nc3cc(C)ccc3C)nc3c([nH]c4ccccc43)c2=O)cc1 | 26%[46.1 µM] | · | · | · | 0.0% | 0% | -2% | ·

Continued.
SMILES	Lassa entry inh	SARS PLP yeast	NS1 function inh	MARV entry inh	Cruzain Triton	2A StopGo	Cruzain inh noDet	RE007 growth inh
Cn1c(=O)c2c(-c3ccccc3Cl)n(-c3cc(Cl)ccc3O)cc2n(C)c1=O	?	·	·	?	0.4%	17%	3%	·
Cc1ccccc1C(=O)OCc1cnc(Cl)s1	·	0%	-2%	·	·	1%	·	1%
COc1ccc(CNCc2ccc(C(=O)O)s2)cc1	20%[46.1 µM]	·	·	-1%[46.1 µM]	-0.8%	16%	-5%	·
Nc1ncnc(Nc2ccc(F)cc2)n1	?	-14%	5%	17%	1.5%	19%	-1%	-2%
Cc1ccnc(NS(=O)(=O)c2ccc(NC(=O)CCS(=O)(=O)c3ccccc3)cc2)n1	·	-1%	3%	·	·	-2%	·	-11%
N#CCCn1cnc2ccccc21	-4%	-2%	-5%	2%	2.0%	-16%	-6%	-4%
CC(C)(C)NC(=O)C(c1cccs1)N(C(=O)c1csnn1)c1ccccc1F (stereo unspecified)	·	0%	-2%	·	·	-3%	·	-12%
O=C(CCC(=O)c1cccs1)OCC(=O)N1CCN(S(=O)(=O)c2ccccc2)CC1	-3%	6%	-11%	-1%	1.5%	-10%	-1%	10%
O=C(COc1ccccc1Cl)NCCCNC(=O)c1ccccn1	0%	7%	5%	-16%[46.1 µM]	·	0%	·	4%
COCCN1CCN(Cc2cn[nH]c2-c2cc3ccccc3o2)CC1	·	-1%	6%	·	·	7%	·	-4%
CCc1ccc2[nH]c(=O)c(CN(Cc3ccccc3)C(=O)Nc3ccccc3OC)cc2c1	-20%	-3%	3%	?	4.4%	-17%	?	11%
COc1cccc(-n2c(=O)c3c4c(sc3n(Cc3ccc(F)cc3Cl)c2=O)CCCC4)c1	2%[46.1 µM]	·	·	0%[46.1 µM]	4.1%	-20%	3%	·
Cc1ccc(S(=O)(=O)N(C)c2ccc(C(=O)N3CCC(C(N)=O)CC3)cc2)cc1	-4%	·	-11%	-17%	1.6%	0%	15%	-12%
O=C(COC(=O)CCc1c[nH]c2ccccc12)Nc1ccc([N+](=O)[O-])cc1	7%	-10%	8%	0%	-17%	-18%	0%	-17%
CCc1noc(C)c1C(=O)Nc1nc2c(C)cccc2s1	13%	-1%	·	-19%[46.1 µM]	·	10%	·	-22%

Gathered by group, those above containing an aryl thioether with sulfur outside any ring (4)
SMILES	Lassa entry inh	SARS PLP yeast	NS1 function inh	MARV entry inh	Cruzain Triton	2A StopGo	Cruzain inh noDet	RE007 growth inh
COCCNc1nnc(SCC(=O)Nc2cc(-c3ccccc3)nn2-c2ccccc2)s1	4%	-9%	13%	-13%	1.9%	-9%	18%	-1%
CSc1nc(O)c(C(c2ccccc2Cl)c2c(O)nc(SC)[nH]c2=O)c(=O)[nH]1	-3%[46.1 µM]	·	·	?	·	22%	·	7%
CCOc1ccc(-n2c(SCC(=O)Nc3cc(C)ccc3C)nc3c([nH]c4ccccc43)c2=O)cc1	26%[46.1 µM]	·	·	·	0.0%	0%	-2%	·
COc1ccc(-c2nnc(SCC(=O)Nc3ccccc3C)o2)cc1OC	-4%[46.1 µM]	·	·	-19%[46.1 µM]	-4.7%	-15%	15%	·

Next section
SMILES	Lassa entry inh	SARS PLP yeast	NS1 function inh	MARV entry inh	Cruzain Triton	2A StopGo	Cruzain inh noDet	RE007 growth inh
O=C(CN(Cc1cccs1)C(=O)CNS(=O)(=O)c1ccc(Cl)cc1)NCc1ccco1	4%	4%	11%	-7%	-0.4%	-9%	-1%	2%
Cc1cccc(OCCSc2nc3ccccc3n2CC(=O)N2CCCCC2)c1C	-25%[46.1 µM]	·	·	8%[46.1 µM]	-4.1%	-18%	-2%	·
COC(=O)c1cnn(-c2cc(Oc3cccc(C)c3)ncn2)c1N	-24%	-2%	-2%	-13%	1.3%	0%	13%	-16%
Clc1ccc(CN2CCCCCCC2)cc1	3%	2%	1%	?	-0.6%	-6%	5%	-9%
CN(C)c1cc(N/N=C\c2ccccc2)nc(N(C)C)n1	·	-2%	-41%	·	·	-23%	·	-16%
CC(=O)Nc1ccc2c(c1)NC(=O)CC2	-3%[46.1 µM]	1%	·	-14%[46.1 µM]	·	-3%	·	5%
C=CCn1c(=N)n(CC(=O)O)c2ccccc21	-12%	-1%	-4%	?	3.8%	-10%	-8%	34%
CCCCCCn1c(C(C)NC(=O)c2ccco2)nc2ccccc21 (stereo unspecified)	-24%	0%	-82%	?	-2.3%	?	16%	-5%
Cc1ccccc1CN(C)C(=O)COC(=O)c1ccc2[nH]c(C)c(C)c2c1	?	1%	·	?	·	-17%	·	2%
CCN(CC)S(=O)(=O)c1ccc(NC(=O)COC(=O)CCc2cc(OC)c(OC)c(OC)c2)cc1	12%	5%	-2%	?	-7.1%	-20%	1%	5%
O=C(/C=C/c1cccs1)N1CCc2ccccc21	?	-49%	-21%	8.2µM*	-11%	-63%	-18%	·
COc1ccc(CNS(=O)(=O)c2ccc(-c3cc(C(F)(F)F)on3)s2)cc1OC	10%[46.1 µM]	·	·	·	1.4%	0%	-9%	·
O=C(c1ccc(Cn2c(=S)[nH]c3ccc(Br)cc3c2=O)cc1)N1CCN(C2CCCCC2)CC1	·	-4%	·	10%[46.1 µM]	·	-18%	·	-28%
CC(C)(C)N1C(=O)[C@H]2[C@@H](c3ccc(Br)cc3)N3C(=O)N(c4ccc(Br)cc4)C(=O)[C@@]3(Cc3ccccc3)[C@H]2C1=O	·	-3%	?	·	·	-16%	·	30%
O=C(CNC(=S)N(Cc1ccccc1F)C1CCCCC1)NCCCN1CCOCC1	0%	0%	·	-28%[46.1 µM]	·	-2%	·	-8%
Cc1nn(-c2ccccc2)cc1/C=N/NC(=O)c1cccs1	·	0%	-38%	·	·	0%	·	25%

Fetched by structure from the entries so far, four records:
SMILES	Lassa entry inh	SARS PLP yeast	NS1 function inh	MARV entry inh	Cruzain Triton	2A StopGo	Cruzain inh noDet	RE007 growth inh
CC(C)(C)N1C(=O)[C@H]2[C@@H](c3ccc(Br)cc3)N3C(=O)N(c4ccc(Br)cc4)C(=O)[C@@]3(Cc3ccccc3)[C@H]2C1=O	·	-3%	?	·	·	-16%	·	30%
Cc1ccccc1CN(C)C(=O)COC(=O)c1ccc2[nH]c(C)c(C)c2c1	?	1%	·	?	·	-17%	·	2%
O=C(CN(Cc1cccs1)C(=O)CNS(=O)(=O)c1ccc(Cl)cc1)NCc1ccco1	4%	4%	11%	-7%	-0.4%	-9%	-1%	2%
COC(=O)c1cnn(-c2cc(Oc3cccc(C)c3)ncn2)c1N	-24%	-2%	-2%	-13%	1.3%	0%	13%	-16%

Limited to Cruzain inh noDet, Lassa entry inh and 2A StopGo (2 entries from above):
| smiles | Cruzain inh noDet | Lassa entry inh | 2A StopGo |
| --- | --- | --- | --- |
| COC(=O)c1cnn(-c2cc(Oc3cccc(C)c3)ncn2)c1N | 13% | -24% | 0% |
| Clc1ccc(CN2CCCCCCC2)cc1 | 5% | 3% | -6% |
